CBX7 AlphaScr: CBX7 inhibition, primary AlphaScreen | normalised signal (fraction of DMSO) (test concentration not listed) | 1.1% of 66,000 active | AlphaScreen His6-CBX7 / biotin-H3K27me3 peptide binding; stronger effect = lower value | O95931; in the data active means normalised signal below about 0.5;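 further: 100 nL library stock added to about 20 µL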
Target sequence (O95931 whole entry, looked up): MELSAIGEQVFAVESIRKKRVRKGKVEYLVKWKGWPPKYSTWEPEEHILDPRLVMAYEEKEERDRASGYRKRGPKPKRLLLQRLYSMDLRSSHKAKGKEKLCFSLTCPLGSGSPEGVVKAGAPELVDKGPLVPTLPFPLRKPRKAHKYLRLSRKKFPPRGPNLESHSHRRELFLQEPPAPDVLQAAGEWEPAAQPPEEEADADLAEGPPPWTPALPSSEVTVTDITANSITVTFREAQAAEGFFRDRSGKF
CBX7 AlphaScr z-score: recorded beside CBX7 AlphaScr, whose call it bears; z-score; measured here: z-score of CBX7 signal; some inactives read as strong as hits; reference of the scale not given here;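 same signal on another scale; lower means less binding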
An asterisk follows results filed as active.

Every second line gives: CBX7 AlphaScr | CBX7 AlphaScr z-score
- Cc1ccc(-n2c(C)nc3c(cnn3-c3ccc(C)c(C)c3)c2=O)cc1
→ 1.09 | 1.11
- Cn1nc(-c2ccc(C(=O)Nc3cccnc3)cc2)c2ccccc2c1=O
→ 1.17 | 1.56
- CC(Oc1ccc(Cl)cc1Cl)c1nc(-c2ccccn2)no1 (stereo not drawn)
→ 0.945 | -0.0649
- COc1ccccc1Nc1ncc(C(=O)N2CCN(C)CC2)c2ccccc12
→ 1.08 | 3.56
- CN(Cc1ccccc1)C(=O)c1nn2c(C(F)(F)F)cc(-c3ccc(F)cc3)nc2c1Cl
→ 0.98 | -0.134
- CCn1c(C(=O)N2CCC(C(=O)NC(C)C34CC5CC(CC(C5)C3)C4)CC2)cc2sccc21 (stereo not drawn)
→ 0.775 | -0.989
- COc1cccc(-c2nc(-c3ccccn3)no2)c1OC
→ 0.976 | -0.263
- O=C(CCc1nc(-c2ccccc2F)no1)NC1CCCCC1
→ 1.13 | 1.99
- O=C(Nc1ccccc1-c1nc2ccccc2s1)c1c(F)cccc1F
→ 1.24 | 4.79
- CC(O)c1nc2ccccc2n1Cc1ccccc1Cl (stereo not drawn)
→ 0.981 | -0.953
- O=C(NCc1nc2ccccc2n1Cc1ccccc1F)c1ccc(F)cc1
→ 1.1 | 1.15
- COCCCNC(=O)CN1C(=O)COc2ccc(C(C)(C)C)cc21
→ 1.04 | 0.764
- CC[C@H](C)NC(=O)Cc1ccc(NC2=NC3CS(=O)(=O)CC3S2)cc1 (stereo partly drawn)
→ 0.813 | -2.04
- CCOC(=O)c1cccc(NC(=O)c2cc3c(s2)-c2ccccc2OC3)c1
→ 1.08 | 1.85
- Cc1ccc(NC(=O)c2cc(-c3ccc(F)cc3)on2)cc1C
→ 1.1 | 0.129
- O=C1CN(C(=O)CCc2ccccc2)C(c2ccccc2)c2cc(Cl)ccc2N1 (stereo not drawn)
→ 0.745 | -2.43
- Cc1ccc(CCN2C(=O)Cn3cccc3C2C(=O)NC2CCCCC2C)cc1 (stereo not drawn)
→ 0.975 | -0.502
- COc1ccc(-c2nc(C#N)c(N3CCN(C)CC3)o2)cc1
→ 1.01 | 0.156
- Cc1nc2c(C(=O)NCc3cccnc3)cnn2c(C)c1Cc1c(F)cccc1Cl
→ 1.06 | 1.78
- CC(C)CCNC(=O)CC(C)CC1=NS(=O)(=O)c2ccccc2N1 (stereo not drawn)
→ 1.23 | 1.74
- O=C(NCc1ccccc1Cl)c1cc(=O)[nH]c2ccc(S(=O)(=O)N3CCOCC3)cc12
→ 0.968 | -0.366
- O=C(Nc1ccc(F)cc1F)C(Cc1ccccc1)N1C(=O)c2ccccc2C1=O (stereo not drawn)
→ 1.32 | 1.28
- Fc1ccc(-c2cc(-c3nc(-c4ccncc4)no3)c3ccccc3n2)cc1
→ 0.987 | -0.0129
- COc1ccc(CSc2nnc(-c3ccccc3)n2C)cc1
→ 1.05 | 1.48
- Cc1ccc(-c2nc(S(=O)(=O)c3ccc(Cl)cc3)c(SCC(=O)NCC3CCCO3)o2)cc1 (stereo not drawn)
→ 1.02 | 0.17
- O=C1CCc2cc(S(=O)(=O)N3CCC(C(=O)Nc4ccc(F)c(Cl)c4)CC3)ccc2N1
→ 1.04 | 0.432
- O=C(Nc1ccc(Cl)cc1)c1cc(S(=O)(=O)N2CCOCC2)cs1
→ 0.954 | -0.913
- Cc1c(Cl)cccc1NC(=O)c1cc(-c2cccc(Br)c2)nc2ccccc12
→ 1.13 | 0.446
- COc1ccc(Nc2cc(C(=O)NCCCN(CC(C)C)CC(C)C)c3ccccc3n2)c(OC)c1
→ 0.722 | -4.25
- O=C1CC(c2nc3ccccc3[nH]2)CN1c1ccccc1F (stereo not drawn)
→ 1.15 | 1.08

Next part; the last two above are carried over.
Every second line gives: CBX7 AlphaScr | CBX7 AlphaScr z-score
- COc1ccc(Nc2cc(C(=O)NCCCN(CC(C)C)CC(C)C)c3ccccc3n2)c(OC)c1
→ 0.722 | -4.25
- O=C1CC(c2nc3ccccc3[nH]2)CN1c1ccccc1F (stereo not drawn)
→ 1.15 | 1.08
- O=C(CC1(O)C(=O)N(CCc2ccccc2)c2ccccc21)c1cccs1 (stereo not drawn)
→ 1.09 | 0.84
- Cc1ccc(Cc2cnc(NC(=O)CCCOc3ccc(Br)cc3)s2)cc1
→ 0.989 | -0.282
- O=C(NCc1ccccc1)c1ccc2c(c1)N(Cc1ccccc1)CCS2
→ 0.771 | -0.304
- CCN(CC)S(=O)(=O)c1ccc2oc(C(=O)NCc3cccnc3)c(C)c2c1
→ 0.992 | -0.0391
- COc1ccccc1-n1c(/C=C/c2c(C)[nH]c3ccccc23)nc2ccccc2c1=O
→ 1.06 | 1.44
- COc1cccc(NC(=O)CCc2nc(-c3cccs3)no2)c1
→ 0.988 | -0.324
- O=C(Nc1ccc(S(=O)(=O)N2CCCCCC2)cc1)c1ccc(F)cc1
→ 1.03 | 0.0304
- O=C(NCc1cccs1)c1cc2n(n1)C(C(F)(F)F)CC(c1ccc(Cl)c(Cl)c1)N2 (stereo not drawn)
→ 0.953 | -0.912
- O=C(C1CC1)N1CCc2cc(S(=O)(=O)NCCCN3CCN(Cc4ccccc4)CC3)ccc21
→ 1.01 | 0.199
- Clc1ccc2nc3c(c(Nc4ccc5c(c4)OCCO5)c2c1)CCC3
→ 0.991 | -0.012
- CCCCN(C)C(=O)C1CCN(c2cc(C)nc3c(-c4ccc(OC)c(OC)c4)c(C)nn23)CC1
→ 0.991 | -0.0221
- O=C(Cn1ncc2c1-c1ccccc1OC2)Nc1ccc(F)cc1F
→ 0.886 | -1.63
- Cn1c2c(c3cc(C4CCCCC4)ccc31)C(=O)CCC2
→ 1.15 | 1.45
- CCC(C)Cn1c(C(O)c2ccccc2)nc2ccccc21 (stereo not drawn)
→ 1.01 | 0.116
- CCOc1ccc(N2C(=O)CC(N(C)Cc3ccccc3)C2=O)cc1 (stereo not drawn)
→ 0.905 | -1.47
- O=C(CC1Nc2ccccc2NC1=O)NCC1COc2ccccc2O1 (stereo not drawn)
→ 1.09 | 0.716
- COc1ccc(CC(=O)Nc2c(-c3ccc(F)cc3)nc3ccccn23)cc1OC
→ 1.22 | 2.11
- COc1ccc(-c2cc(C(=O)Nc3ccc(C)cc3)no2)cc1
→ 1.26 | 1.49
- Cc1cccc2c1-c1sc(C(=O)NC3CCCCC3)cc1CO2
→ 1.22 | 5.04
- O=C(O)CCC(=O)N1CCc2cc(S(=O)(=O)NCC3COc4ccccc4O3)ccc21 (stereo not drawn)
→ 0.911 | -1.46
- COc1ccc(CCN(Cc2ccccn2)S(=O)(=O)c2ccc(C(C)(C)C)cc2)cc1OC
→ 0.739 | -2.85
- Cc1ccc(-n2nc(C)c3c(C)c(CCC(=O)NC4CCCCCC4)c(C)nc32)cc1
→ 1.31 | 2.38
- COc1ccc(OC)c(-c2cc(C(=O)Nc3c(C)nn(Cc4ccc(C)cc4)c3C)no2)c1
→ 1.22 | 1.6
- COC(=O)Cc1nnc(Nc2cccc(C)c2)c2ccccc12
→ 1.06 | 0.176
- Cc1ccc(-c2nnn(CC(=O)Nc3ccc(F)cc3F)n2)cc1
→ 1.07 | 0.627
- CCCCc1ccc(-c2nc(Nc3cc(Cl)ccc3OC)c3ccccc3n2)cc1
→ 1.31 | 7.09
- c1ccc(CC2CCN(Cc3nc(-c4ccccc4)no3)CC2)cc1
→ 1.17 | 1.32
- COc1ccccc1NC(=O)Cc1c(C(=O)O)[nH]c2ccc(Cl)cc12
→ 0.968 | -0.957
- CCC(=O)Nc1nonc1-c1nc2ccccc2n1CC(C)C
→ 1.22 | 0.785
- Nc1nonc1-c1noc(-c2ccc(F)cc2)n1
→ 0.929 | -0.85

Record cards, from the list above.
`CCCCN(C)C(=O)C1CCN(c2cc(C)nc3c(-c4ccc(OC)c(OC)c4)c(C)nn23)CC1` is listed with CBX7 AlphaScr = 0.991; CBX7 AlphaScr z-score = -0.0221
`CCOc1ccc(N2C(=O)CC(N(C)Cc3ccccc3)C2=O)cc1` (stereo not drawn) is listed with CBX7 AlphaScr = 0.905; CBX7 AlphaScr z-score = -1.47

Next part
Every second line gives: CBX7 AlphaScr | CBX7 AlphaScr z-score
- Cc1ccc(NC(=O)c2ccn(C(=O)Nc3ccccc3)n2)c(C)c1
→ 1.08 | 0.161
- COCc1cc(C)nc(SCC(N)=O)c1
→ 0.958 | -0.675
- CCc1ccccc1NC(=O)Cn1c(SCc2cccc(C)c2)nc2ccncc21
→ 0.963 | -0.523
- CS(=O)(=O)c1ccc2nc(NC(=O)CCc3ccccc3)sc2c1
→ 1.03 | 0.787
- COc1cccc(N2CCN(S(=O)(=O)c3cnc[nH]3)CC2)c1
→ 1.01 | 0.466
- COc1ccc(NS(=O)(=O)c2ccc3c(c2)CCN3C(C)=O)cc1
→ 1.04 | 1.18
- Cc1nc2cc(C(=O)NCCN3CCOCC3)ccc2n1-c1cccc(Cl)c1
→ 1.05 | 0.0522
- Cc1cc(N2CCCCC2)nc2ccc(NC(=O)c3ccc(F)cc3Cl)cc12
→ 1.12 | 3.21
- CC(C(=O)Nc1nccs1)N1C(=O)c2ccccc2C1=O (stereo not drawn)
→ 0.982 | -0.48
- O=C(NCc1ccccc1)C1CCN(c2nnc(-n3cccc3)s2)CC1
→ 1.01 | 0.218
- Cn1c(=O)c(=O)n(C)c2cc(S(=O)(=O)Nc3ccc(F)cc3F)ccc21
→ 1.21 | 1.53
- Cc1ccccc1-c1nc(CS(=O)(=O)CC(=O)NCCN2CCCC2)c(C)o1
→ 0.957 | -1.11
- O=C(NCCN1CCOCC1)c1ccc2c(c1)ncn2C1CCCCCC1
→ 1.01 | 0.0722
- O=C(NCC1CCCO1)c1ccc2c(c1)ncn2-c1ccc(OCc2ccccc2)cc1 (stereo not drawn)
→ 0.903 | -2.35
- O=C1c2ccccc2C(Nc2ccc(Cl)cc2)N1c1ccccn1 (stereo not drawn)
→ 1.02 | 0.599
- CCCCn1cnc2cc(NCc3cccs3)ccc21
→ 0.71 | -3.73
- CC1CCN(S(=O)(=O)c2ccc(C(=O)Nc3ccccc3-c3nc4ccccc4s3)cc2)CC1
→ 1.1 | 0.117
- CCOC(=O)C1CCCN(C(=O)C2CCN(c3nnc(-n4cccc4)s3)CC2)C1 (stereo not drawn)
→ 1.01 | 0.447
- CCOc1ccc(CN2C(=O)CCC2(C)C(=O)NC2CCCCC2)cc1OC (stereo not drawn)
→ 1.27 | 3.51
- Cc1cccc(OCC(=O)Nc2ccc(-c3nc4cc(C(C)C)ccc4o3)cc2)c1C
→ 1.04 | 0.0476
- CCc1ccccc1NS(=O)(=O)c1ccc2c(c1)n(C)c(=O)c(=O)n2C
→ 0.84 | -2.46
- O=C1CCCC2=C1C(c1ccsc1)CC(=O)N2c1ccccc1 (stereo not drawn)
→ 0.991 | -0.0905
- COc1ccc(-c2nc3cc(C)c(C)cc3[nH]c2=O)cc1
→ 0.946 | -1.8
- O=C(NC1CCCc2ccccc21)c1ccc2c(c1)N(Cc1ccc(Cl)cc1)CCS2 (stereo not drawn)
→ 0.863 | -2.15
- CCc1ccc(NC(=O)c2sc3ncn(CC(=O)N(CC)CC)c(=O)c3c2C)cc1
→ 1.1 | 2.48
- Cc1cc2cc(CCNS(=O)(=O)c3ccccc3)c(=O)[nH]c2cc1C
→ 1.01 | 0.361
- Cc1ccn2c(Nc3ccccc3C)c(-c3ccccc3)nc2c1
→ 0.959 | -0.42
- CCOc1cc(-n2nc(-c3ccccc3)cc2-c2ccccc2)ncn1
→ 1.2 | 2.13
- CCN(CC)c1ccc(C(=O)Nc2ccc3nc(N4CCN(C)CC4)cc(C)c3c2)cc1
→ 0.813 | -3.38
- Cc1csc(NC(=O)c2cc3c(s2)-c2c(C)cccc2OC3)n1
→ 1.09 | 2.57

New compounds follow.
Every second line gives: CBX7 AlphaScr | CBX7 AlphaScr z-score
- CC(NC(=O)C(=O)NCc1cccnc1)C(c1cccs1)N1CCN(c2ccc(F)cc2)CC1 (stereo not drawn)
→ 0.927 | -2.37
- COc1cccc(CN2C(=O)c3ccccc3C2C(=O)NCc2cccnc2)c1 (stereo not drawn)
→ 1.09 | 2.44
- CC1(C(=O)NC2CCCCCC2)CCC(=O)N1Cc1ccc2c(c1)OCO2 (stereo not drawn)
→ 1.15 | 1.97
- CC(C)CSc1oc(-c2ccc(F)cc2)nc1S(=O)(=O)c1ccc(F)cc1
→ 0.936 | -0.53
- CCn1c(SCc2ccccc2Cl)nc2ccccc21
→ 1.06 | 1.69
- Cn1nc(CC(=O)Nc2ccc(Br)cc2F)c2ccccc2c1=O
→ 1.05 | 0.526
- O=C(Nc1ccc2oc(-c3cc(Br)ccc3Cl)nc2c1)c1ccc2ccccc2c1
→ 0.996 | -0.0476
- CC1CCC(C(=O)NC(C(=O)N2CCN(Cc3ccccc3)CC2)C(C)C)CC1 (stereo not drawn)
→ 1.02 | 0.912
- Cc1oc(-c2cccc(Cl)c2)nc1CN1CCC(C(=O)NCCCN2CCN(C)CC2)CC1
→ 1.81 | 6.87
- O=C(c1ccc(NC2=NC3CS(=O)(=O)CC3S2)cc1)N1CCN(c2ccc(Cl)cc2)CC1 (stereo not drawn)
→ 0.87 | -2.44
- Cc1cc(NC(=O)c2cc(-c3ccco3)on2)nn1Cc1ccc(Cl)cc1
→ 1.01 | 0.162
- CCCCC(=O)Nc1cccc(-c2cn3ccccc3n2)c1
→ 1.02 | 0.252
- COc1cccc(OC)c1OCC(O)CN1CCCCC1 (stereo not drawn)
→ 1.06 | 0.855
- C=CCNC(=O)c1cc(-c2ccc(Cl)cc2)on1
→ 1.1 | 0.288
- Cc1ccc(-n2nc3ccc(NC(=O)COc4ccc(C)c(C)c4)cc3n2)cc1
→ 0.845 | -2
- CCOc1ccc(CCNC(=O)CN2CCN(Cc3ccc(Cl)cc3)C2=O)cc1OCC
→ 0.939 | -0.811
- Cc1cc(NC(=O)C2CCN(S(=O)(=O)c3cccc4cccnc34)CC2)ccc1Br
→ 0.902 | -1.26
- CCc1ccc(C2CC(c3cc(OC)ccc3OC)n3ncnc3N2)cc1 (stereo not drawn)
→ 0.952 | -1.67
- CNc1ccc2nnc(C(F)(F)F)n2n1
→ 1.08 | 2.24
- COc1cc(C2C(=O)N(C3CCC(C)CC3)CC(=O)N2Cc2ccc(C)cc2)ccc1OC(C)C (stereo not drawn)
→ 0.793 | -4.4
- Cc1nc(N2CCCCC2C)c2c(C)c(C(=O)Nc3ccc(F)cc3F)sc2n1 (stereo not drawn)
→ 0.82 | -5.44

A portion of the library; count on the stated rates, not on these rows.
